MbtI inh – blocks the Mycobacterium tuberculosis siderophore enzyme MbtI; P9WFX0; purified MbtI enzyme, fluorescence intensity read-out; inhibition, %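 (about 17 µg/mL by stock and volumes)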; actives 0.89% (n = 100,000); AID 493033;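 active means above 50% in both replicates, above 80% if mildly self-fluorescent; inactive means the rest, strongly fluorescent compounds included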;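 further: 0% = mean of negative and 100% = mean of positive controls; one replicate is shown; some compounds called inactive have numbers as strong as hits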
Polio RdRp inh – inhibitors of poliovirus RNA polymerase binding and polymerization; P03300; poliovirus polymerase elongation, fluorescence polarization; stronger effect = lower value; % elongation, % (compound at 16.7 µg/mL); actives 0.66% (n = 150,000); AID 588519; in the data active means % elongation below about 90%; further: some results filed as inactive read as strong as hits
Target sequence (P03300 1749-2209 limits assumed): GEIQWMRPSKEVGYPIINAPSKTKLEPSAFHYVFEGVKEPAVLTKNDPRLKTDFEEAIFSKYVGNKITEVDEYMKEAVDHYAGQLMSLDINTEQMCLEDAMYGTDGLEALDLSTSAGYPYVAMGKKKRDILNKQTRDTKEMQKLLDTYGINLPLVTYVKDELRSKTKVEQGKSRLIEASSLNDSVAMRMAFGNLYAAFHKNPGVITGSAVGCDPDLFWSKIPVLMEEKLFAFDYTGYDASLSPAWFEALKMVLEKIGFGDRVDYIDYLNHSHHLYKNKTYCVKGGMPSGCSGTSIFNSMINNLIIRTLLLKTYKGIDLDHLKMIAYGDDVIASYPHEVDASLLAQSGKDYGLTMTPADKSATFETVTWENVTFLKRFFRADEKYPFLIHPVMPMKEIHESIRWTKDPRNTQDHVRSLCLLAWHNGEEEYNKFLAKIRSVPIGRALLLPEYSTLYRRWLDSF
MenB inh – blocks the Mycobacterium tuberculosis MenB enzyme; P9WNP5; MenB enzyme assay, absorbance read-out; some hits fall short of the stated cut; inhibition, %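 (about 12 µg/mL by stock and volumes)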; actives 0.43% (n = 100,000); AID 540299;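 active means mean of two replicates above 30%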;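 further: 0% = no compound and 100% = wells with inactive enzyme; the first replicate is given; strong numbers were not always called active; inactives centre near -10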
Target sequence (P9WNP5 whole entry, looked up): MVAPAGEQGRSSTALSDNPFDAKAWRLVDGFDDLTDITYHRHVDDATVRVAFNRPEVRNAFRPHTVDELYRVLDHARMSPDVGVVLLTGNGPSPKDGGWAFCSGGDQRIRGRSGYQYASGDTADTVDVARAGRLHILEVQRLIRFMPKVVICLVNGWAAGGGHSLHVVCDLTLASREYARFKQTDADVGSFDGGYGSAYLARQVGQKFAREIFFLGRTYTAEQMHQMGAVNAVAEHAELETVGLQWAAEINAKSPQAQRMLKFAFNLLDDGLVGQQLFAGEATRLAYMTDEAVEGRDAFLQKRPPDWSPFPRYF
Polio RdRp inh intensity – second read-out of Polio RdRp inh, no call of its own (marks repeat the call); % elongation; measured here: total intensity read-out; formula for this scale not given here;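 total fluorescence in place of polarization; lower means less elongation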
Active calls of the source: *; & = joins results of further samples.

For COc1ccc(NC(=O)/C(C#N)=C/c2ccc3c(c2)n(C)c(=O)n3C)cc1 the results were MbtI inh -19.9, Polio RdRp inh 105.0, MenB inh -7.9 and Polio RdRp inh intensity 110.0.
Screening NC1=NC2(CCCCC2)n2c(nc3ccccc32)N1 returned MbtI inh 9.6&11.4, Polio RdRp inh 102.0&102.0, MenB inh -7.3&-23.9 and Polio RdRp inh intensity 102.0&91.0.
`O=c1/c(=C/C2=Cc3ccccc3OC2)sc2nc3ccccc3n12` gave MbtI inh 8.4, Polio RdRp inh 102.0, MenB inh 11.7 and Polio RdRp inh intensity 103.0.
CC(C)n1nnnc1SCC(=O)c1ccc(F)cc1 was read as MbtI inh 0.1, Polio RdRp inh 101.0, MenB inh 27.8* and Polio RdRp inh intensity 103.0.
C=CCSC1=N/C(=C\c2ccsc2)C(=O)S1 was read as MbtI inh -16.5, Polio RdRp inh 100.0, MenB inh -121.9 and Polio RdRp inh intensity 104.0.
CN(Cc1ccccc1)C(=O)COc1ccc(S(=O)(=O)N2CCCC2)cc1 was read as MbtI inh -3.3, Polio RdRp inh 100.0, MenB inh 40.5* and Polio RdRp inh intensity 103.0.
`CC(C)[C@@H]1CC[C@@H](C)C[C@@H]1OC(=O)C(O)C(O)C(=O)O[C@H]1C[C@H](C)CC[C@H]1C(C)C` (some centres not stated) gave Polio RdRp inh 106.0, MenB inh -20.3 and Polio RdRp inh intensity 110.0.
Screening COc1ccc2c(c1)c(=O)oc1cc(O)ccc12 returned MbtI inh -134.3, Polio RdRp inh 101.0, MenB inh -3.2 and Polio RdRp inh intensity 104.0.
Screening COc1ccccc1C1CCN(C(=O)c2scc(S(=O)(=O)c3ccc(Cl)cc3)c2C)CC1 returned MbtI inh -8.1, Polio RdRp inh 103.0, MenB inh -18.4 and Polio RdRp inh intensity 110.0.
COc1ccc(Cl)cc1NC(=O)c1sc(=S)n(C)c1N was read as MbtI inh 87.7*, Polio RdRp inh 72.0*, MenB inh -23.9 and Polio RdRp inh intensity 83.0*.
CC(=O)N1c2ccccc2C(=O)C1N(C)c1ccc(C)cc1 (configuration not stated) was read as MbtI inh 19.9, Polio RdRp inh 100.0, MenB inh -1.6 and Polio RdRp inh intensity 104.0.
CC1(C)CC(=O)C(=CN2CCCCC2)C(=O)C1 was read as MbtI inh 17.2, Polio RdRp inh 101.0, MenB inh -30.0 and Polio RdRp inh intensity 99.0.
For Cc1cc(C)n(C(=O)Cc2cn3ccsc3n2)n1 the results were MbtI inh -0.7, Polio RdRp inh 99.0 and Polio RdRp inh intensity 99.0.
`O=c1[nH]nc(CSc2ccc(Cl)cc2)c2ccccc12` gave MbtI inh -3.4, Polio RdRp inh 102.0, MenB inh -16.0 and Polio RdRp inh intensity 108.0.
For O=C(CN1CCc2ccccc21)Nc1cccc(F)c1 the results were MbtI inh -4.2, Polio RdRp inh 104.0, MenB inh -5.3 and Polio RdRp inh intensity 100.0.

Compounds listed so far containing four or more nitrogen atoms, in the order listed:
For COc1ccc(NC(=O)/C(C#N)=C/c2ccc3c(c2)n(C)c(=O)n3C)cc1 the results were MbtI inh -19.9, Polio RdRp inh 105.0, MenB inh -7.9 and Polio RdRp inh intensity 110.0.
Screening NC1=NC2(CCCCC2)n2c(nc3ccccc32)N1 returned MbtI inh 9.6&11.4, Polio RdRp inh 102.0&102.0, MenB inh -7.3&-23.9 and Polio RdRp inh intensity 102.0&91.0.
CC(C)n1nnnc1SCC(=O)c1ccc(F)cc1 was read as MbtI inh 0.1, Polio RdRp inh 101.0, MenB inh 27.8* and Polio RdRp inh intensity 103.0.
For Cc1cc(C)n(C(=O)Cc2cn3ccsc3n2)n1 the results were MbtI inh -0.7, Polio RdRp inh 99.0 and Polio RdRp inh intensity 99.0.

Later entries.
`CN(C)CCCN1C(=O)C2C3C=CC(C3)C2C1=O` (configuration not stated) gave MbtI inh -3.4, Polio RdRp inh 102.0, MenB inh -6.6 and Polio RdRp inh intensity 105.0.
Cc1cc(OCC(=O)Nc2nnn(C)n2)ccc1Cl was read as Polio RdRp inh 102.0, MenB inh -13.8 and Polio RdRp inh intensity 91.0.
`Clc1ccc(SCc2nnc(-c3ccc(Cl)cc3)o2)cc1` gave MbtI inh 44.0, Polio RdRp inh 115.0, MenB inh -7.6 and Polio RdRp inh intensity 115.0.
For O=C(O)CSCC(=O)N1Cc2ccccc2CC1C(=O)O (configuration not stated) the results were MbtI inh -1.8, Polio RdRp inh 98.0, MenB inh -19.3 and Polio RdRp inh intensity 103.0.
Screening Cc1nc(-c2ccc(-c3cccs3)s2)sc1-c1ccnn1C(=O)C(C)(C)C returned MbtI inh -1.4, Polio RdRp inh 104.0, MenB inh 7.0 and Polio RdRp inh intensity 121.0.
Screening Cc1c2cnn(CC(=O)NC3CC3)c(=O)c2c(C)n1Cc1ccccc1 returned MbtI inh 2.1, Polio RdRp inh 101.0, MenB inh 10.2 and Polio RdRp inh intensity 102.0.
`O=C(CCCn1nc(-c2ccccc2)c2cc(Cl)ccc21)Nc1ccc(F)cc1` gave MbtI inh 48.2, Polio RdRp inh 103.0, MenB inh -33.0 and Polio RdRp inh intensity 104.0.
`CCN(CC)CC1OCc2ccccc2CO1` gave MbtI inh -1.1, Polio RdRp inh 103.0, MenB inh 15.6 and Polio RdRp inh intensity 104.0.
For O=C(O)C1C2C=CC(C2)C1C(=O)NCC1CCCCC1 (configuration not stated) the results were MbtI inh -2.7, Polio RdRp inh 101.0, MenB inh 10.5 and Polio RdRp inh intensity 100.0.
Screening CC(C)NC(=O)N1CCc2sccc2C1c1ccc(Cl)cc1 (configuration not stated) returned MbtI inh -6.0, Polio RdRp inh 103.0, MenB inh -2.0 and Polio RdRp inh intensity 113.0.
Screening CSC1=C(C#N)C(=O)NC(c2ccc(Cl)cc2)S1 (configuration not stated) returned MbtI inh 1.9, Polio RdRp inh 88.0*, MenB inh -1.1 and Polio RdRp inh intensity 93.0*.
CCC(c1ccccc1)c1nn2c(-c3cccnc3)nnc2s1 (configuration not stated) was read as MbtI inh 74.5, Polio RdRp inh 100.0, MenB inh -66.8 and Polio RdRp inh intensity 100.0.
For COC1CCC(C(=O)Nc2nc(-c3ccc4c(c3)CCN4S(C)(=O)=O)cs2)CC1 (configuration not stated) the results were MbtI inh 10.2, Polio RdRp inh 102.0, MenB inh 6.1 and Polio RdRp inh intensity 104.0.
CN1C2CC[C@@H]1CC(OC(=O)[C@H](CO)c1ccccc1)C2 (some centres not stated) was read as MbtI inh -14.8, Polio RdRp inh 98.0, MenB inh -1.6 and Polio RdRp inh intensity 101.0.
For CSc1nnc(-c2cc3ccccc3cc2O)n1C the results were MbtI inh 78.2, Polio RdRp inh 102.0, MenB inh -12.6 and Polio RdRp inh intensity 101.0.
Nn1c(CSc2nc3ccccc3o2)nnc1CSc1nc2ccccc2o1 was read as Polio RdRp inh 100.0, MenB inh -9.3 and Polio RdRp inh intensity 106.0.
CC(C)OC(=O)Cn1c(C(=O)OC(C)C)cc2c1ccn2C was read as MbtI inh 32.0, Polio RdRp inh 102.0, MenB inh -4.2 and Polio RdRp inh intensity 103.0.
O=C(Oc1ccc(Cl)cc1Cl)c1cccnc1SCCS(=O)(=O)c1ccccc1 was read as MbtI inh -5.4, Polio RdRp inh 107.0, MenB inh -46.0 and Polio RdRp inh intensity 113.0.
For COc1cccc(NC(=O)c2ccc3c(SCC(=O)O)c4c(nc3c2)CCCC4)c1 the results were MbtI inh 3.0, Polio RdRp inh 101.0, MenB inh -2.6 and Polio RdRp inh intensity 103.0.
O=C(O)c1ccccc1C(=O)NCc1ccc(N2CCCC2=O)cc1 was read as MbtI inh -8.0, Polio RdRp inh 103.0, MenB inh -16.2 and Polio RdRp inh intensity 103.0.
Screening Cc1ccc(CN)cc1F returned MbtI inh -4.5, Polio RdRp inh 104.0, MenB inh -18.7 and Polio RdRp inh intensity 104.0.
For O=C(COc1ccccc1)NS(=O)(=O)c1ccc(N=NN2CCOCC2)cc1 the results were MbtI inh 6.3, Polio RdRp inh 101.0, MenB inh -3.6 and Polio RdRp inh intensity 101.0.
`CN(C)S(=O)(=O)N1CCC(C(=O)O)(c2ccccc2)CC1` gave MbtI inh -3.9, Polio RdRp inh 99.0, MenB inh -16.1 and Polio RdRp inh intensity 97.0.
For O=C(NC1CCCC1)c1cc2c(s1)CS(=O)(=O)C2 the results were MbtI inh 1.7, Polio RdRp inh 102.0, MenB inh 13.1 and Polio RdRp inh intensity 103.0.
For O=S(=O)(c1cccc2nonc12)N1CCC(n2cccc2)CC1 the results were MbtI inh -11.3, Polio RdRp inh 101.0, MenB inh -19.3 and Polio RdRp inh intensity 104.0.
Cc1noc(C)c1CSc1ncccc1C(=O)N1CCCC1c1cccs1 (configuration not stated) was read as MbtI inh 43.6, Polio RdRp inh 105.0, MenB inh -8.6 and Polio RdRp inh intensity 109.0.
For Cn1nc(-c2ccc(C(=O)N3CCCCC3)cc2)c2ccccc2c1=O the results were MbtI inh 4.2, Polio RdRp inh 99.0, MenB inh 26.0 and Polio RdRp inh intensity 101.0.
`S=C(NN=C1CCCCCC1)Nc1ccccc1` gave MbtI inh 13.8, Polio RdRp inh 103.0, MenB inh -20.1 and Polio RdRp inh intensity 100.0.
For CCC(C)Sc1ncnc2sccc12 (configuration not stated) the results were MbtI inh -0.1, Polio RdRp inh 105.0, MenB inh -9.3 and Polio RdRp inh intensity 107.0.
Screening Cc1c(N=CN2CCOCC2)c(=O)n(C)c(=O)n1C returned MbtI inh 1.0, Polio RdRp inh 101.0, MenB inh -6.3 and Polio RdRp inh intensity 99.0.

3 neighbouring entries from above:
`S=C(NN=C1CCCCCC1)Nc1ccccc1` gave MbtI inh 13.8, Polio RdRp inh 103.0, MenB inh -20.1 and Polio RdRp inh intensity 100.0.
For CCC(C)Sc1ncnc2sccc12 (configuration not stated) the results were MbtI inh -0.1, Polio RdRp inh 105.0, MenB inh -9.3 and Polio RdRp inh intensity 107.0.
Screening Cc1c(N=CN2CCOCC2)c(=O)n(C)c(=O)n1C returned MbtI inh 1.0, Polio RdRp inh 101.0, MenB inh -6.3 and Polio RdRp inh intensity 99.0.

Next section.
O=S(=O)(NC(=NCCc1ccccn1)Nc1cccc(Cl)c1)c1ccccc1 was read as MbtI inh -18.6, Polio RdRp inh 102.0, MenB inh 5.0 and Polio RdRp inh intensity 107.0.
For CCOc1ccc2nc(SCc3c[nH]c4ccccc34)sc2c1 the results were Polio RdRp inh 104.0, MenB inh -37.5 and Polio RdRp inh intensity 114.0.
`Cc1nn(Cc2ccccc2Cl)c2sc(C(=O)NCCCn3ccnc3)cc12` gave MbtI inh 2.4, Polio RdRp inh 102.0, MenB inh -6.1 and Polio RdRp inh intensity 108.0.
For NC(N)=NCCn1ccc2ccccc21 the results were MbtI inh -23.3, Polio RdRp inh 101.0, MenB inh 3.1 and Polio RdRp inh intensity 101.0.
CCN(CC)C(=O)c1ccc(NS(=O)(=O)CC)cc1 was read as MbtI inh -6.0, Polio RdRp inh 104.0, MenB inh 8.7 and Polio RdRp inh intensity 107.0.
`O=C1CCC2(C(=O)O)c3[nH]c4ccccc4c3CCN12` (configuration not stated) gave MbtI inh -2.8, Polio RdRp inh 100.0, MenB inh 1.3 and Polio RdRp inh intensity 114.0.
For CCOC(=O)C1=C(c2ccccc2)N=c2s/c(=C\c3ccco3)c(=O)n2C1c1cccc(OC)c1 (configuration not stated) the results were MbtI inh -12.5, Polio RdRp inh 100.0, MenB inh -104.1 and Polio RdRp inh intensity 114.0.
For Cc1csc(NC(=O)C(C)Oc2ccccc2)n1 (configuration not stated) the results were MbtI inh -4.4, Polio RdRp inh 100.0 and Polio RdRp inh intensity 103.0.
For CCCC(C)NS(=O)(=O)c1ccccc1 (configuration not stated) the results were MbtI inh -2.5, Polio RdRp inh 100.0, MenB inh 3.2 and Polio RdRp inh intensity 101.0.
For Cc1cccc(OCC(=O)Nc2ccccc2C(=O)N2CCOCC2)c1 the results were MbtI inh -5.3, Polio RdRp inh 104.0, MenB inh -18.1 and Polio RdRp inh intensity 101.0.
`Cc1cc(C)cc(Oc2coc3c(CN4CCCCCC4)c(O)ccc3c2=O)c1` gave MbtI inh -8.7, Polio RdRp inh 103.0, MenB inh -18.8 and Polio RdRp inh intensity 103.0.
`CCOC(=O)c1cc(=O)[nH]c2ccccc12` gave MbtI inh 1.1, Polio RdRp inh 99.0, MenB inh 15.1 and Polio RdRp inh intensity 103.0.
For NNC(=S)NC1CC2CCC1C2 (configuration not stated) the results were MbtI inh -10.7, Polio RdRp inh 101.0, MenB inh -51.7 and Polio RdRp inh intensity 95.0.
Screening Cc1ccc(NC(=O)C(C)Sc2nc(N)cc(N)n2)c(C)c1 (configuration not stated) returned MbtI inh -12.6, Polio RdRp inh 99.0, MenB inh -16.5 and Polio RdRp inh intensity 102.0.
Screening O=C(NCCCN1CCOCC1)c1ccc(CS(=O)c2ccccc2)o1 (configuration not stated) returned MbtI inh 1.1, Polio RdRp inh 100.0, MenB inh 5.2 and Polio RdRp inh intensity 101.0.
For CCOC(=O)Cc1csc(SCC(=O)N2CC(=O)Nc3ccccc32)n1 the results were MbtI inh 22.3, Polio RdRp inh 104.0, MenB inh 12.9 and Polio RdRp inh intensity 99.0.
Cc1ccc(-c2noc(CN(C(=O)NC3CCCCC3)C(C)C)n2)cc1 was read as MbtI inh -10.6, Polio RdRp inh 103.0, MenB inh -5.5 and Polio RdRp inh intensity 102.0.
O=C(Nc1ccccc1)c1nnn(Cc2ccccc2)c1NC(=O)C(F)(F)F was read as Polio RdRp inh 89.0*, MenB inh -14.4 and Polio RdRp inh intensity 92.0*.

Screening results: PubChem BioAssay, ICCB-Longwood Screening Facility, Harvard Medical School
